# Compound activity from PubChem.
# miR-21 FLuc: qHTS Assay for Modulators of miRNAs and/orActivators of miR-21 | 340,000 tested, under 10 active | Potency, µM (doses to about 38.3 µM), for the others: at the highest dose reporter change, positive = more light | HeLa miR-21 FLuc reporter, luciferase, 48 h | AID 2288, 2010; active = well fitted rising curve with a large enough effect; inconclusive = small, poorly fitted or top-dose-only effect; inactive = no such curve, though single readings can be large or run the other way;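 further: % of control where 0% means no effect; miR-21 action dims this reporter so a rising signal means less miR-21 action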
#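 HeLa cells stably expressing CMV-driven firefly luciferase with a downstream miR-21 binding sequence, endogenously expressing miR-21, were treated with titrations (up to about 40uM final) for 48 hours at 37 degree Celsius. Luciferase luminescence was read after lysis.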
# Rango complex inh: qHTS Assay for Inhibitors of Rango (Ran-regulated importin-beta cargo) - Importin beta complex formation; Potency, µM (doses to about 92.2 µM), inactives show top-dose inhibition of complex formation; Rango CFP/YFP FRET sensor + importin beta, 45 min; Importin subunit beta-1 (Homo sapiens), Q14974; 340,000 tested, 0.031% active; AID 540263, 2011; active = rising FRET ratio curve, often small or poorly fitted; inconclusive = mostly compound fluorescence or quenching in the first reads; inactive = flat curves in all reads;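 further: potency means the concentration at half of the fitted maximal effect; 0% = DMSO wells and 100% = buffer wells lacking importin beta; nearly all actives have a fitted effect of over 15% in size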
#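 Inhibition scored from the CFP 486 nm/YFP 530 nm FRET ratio 45 min after adding 0.125 microM importin beta to 50 nM Rango biosensor preincubated 5 min with compound (room temperature, PBS with DTT, Tween-20, BSA). No-importin wells as positive control.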
# Rango release inh: qHTS Assay for Inhibitors of RanGTP induced Rango (Ran-regulated importin-beta cargo) - Importin beta complex dissociation. Snurportin-1 (Homo sapiens) + GTP-binding nuclear protein Ran (Homo sapiens) + Importin …. Biochemical FRET Rango-importin beta, RanGTP-induced dissociation. Potency, µM (series often up to 46.1 µM), without a hit: at the highest dose activity change, negative = inhibition. 340,000 tested, 0.071% active. AID 540253, 2011; active means falling FRET ratio curve, often poorly fitted, with flat reads before Ran was added; inconclusive means other falling curves, or compound fluorescence or quenching; inactive means flat or rising ratio curve;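 further: potency means the concentration at half of the fitted maximal effect; % of control where 0% means no effect; nearly all actives have a fitted effect of over 45% in size; -100% = wells without RanGTP and RCC1; the record marks most hits as doubtful in a second field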
#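 Quantitative HTS using a FRET biosensor: 0.1 uM Rango, 0.25 uM importin beta, 0.6 uM Ran, 2 mM GTP, 0.2 uM RCC1 final, PBS with DTT, Tween-20 and BSA. Post-read taken 45 min after Ran addition.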
# GLA inh pH 4.5: qHTS Assay for Inhibitors of Human alpha-Galactosidase at pH 4.5 | Alpha-galactosidase A (Homo sapiens), P06280 | purified enzyme, 4-MU-alpha-Gal fluorescence, pH 4.5 | activity change, negative = inhibition, % at 105 µM | 230,000 tested, under 10 active | AID 1467, 2008; inconclusive = small, poorly fitted or top-dose-only inhibition, or a rising curve; inactive = flat fitted curve, though single readings scatter; no compound was filed as active;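 further: 0% = full activity with enzyme and -100% = basal without enzyme; dose as in the result columns while the protocol names 77 µM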
# Target sequence (P06280 whole entry, looked up): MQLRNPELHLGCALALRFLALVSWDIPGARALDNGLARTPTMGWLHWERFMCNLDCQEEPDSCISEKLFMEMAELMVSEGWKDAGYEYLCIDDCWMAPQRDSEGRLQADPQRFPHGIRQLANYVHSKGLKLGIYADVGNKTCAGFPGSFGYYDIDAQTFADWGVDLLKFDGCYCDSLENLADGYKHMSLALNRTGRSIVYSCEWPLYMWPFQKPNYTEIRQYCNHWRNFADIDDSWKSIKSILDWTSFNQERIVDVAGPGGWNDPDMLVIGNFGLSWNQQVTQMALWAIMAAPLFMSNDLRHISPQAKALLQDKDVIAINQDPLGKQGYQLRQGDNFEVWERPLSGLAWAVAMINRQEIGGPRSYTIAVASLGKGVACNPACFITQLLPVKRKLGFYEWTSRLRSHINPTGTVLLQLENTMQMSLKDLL
# An asterisk follows results filed as active; ? = inconclusive; · = not tested or not shown; & = joins results of further samples.
SMILES,miR-21 FLuc,Rango complex inh,Rango release inh,GLA inh pH 4.5
CC(C)(C)c1ccc(C2C3=C(CCCC3=O)NC3=C2C(=O)c2ccccc23)cc1 (centres undefined),-2%,?,8%,?
Cc1cc2c(c(C)nn2-c2ccccc2)c(=O)o1,-13%,-4.6%,-12%,10
CN(CC(=O)Nc1ccc(F)cc1)C(=O)COC(=O)COc1ccc(C#N)cc1,·,-5.3%,-11%,·
COc1ccc(NC(=O)Nc2cccc(C(=O)N3CCOCC3)c2)cc1OC,-4%,0.3%,15%,-1
COC(=O)c1ccc2cc(OC)cc([N+](=O)[O-])c2n1,·,5.5%,-13%,·
COc1ccc(C(=O)CSc2nc(C)cc(=O)[nH]2)cc1,-16%,?,-1%,0
N#CC1(C#N)C(c2ccccc2)OC23CCCCC2C1(C#N)C(=N)O3 (centres undefined),-6%,?,?,?
Cc1sc2nc(SCC(=O)NCc3ccco3)[nH]c(=O)c2c1C,0%,?,-10%,1
CCCCCCc1c(C)c2ccc(OCC(=O)N[C@@H](Cc3ccccc3)C(=O)O)cc2oc1=O,-1%,1.9%,2%,·
COC(=O)c1c(N2C(=O)[C@H]3[C@@H](C2=O)[C@]2(C(=O)Nc4c(C)cccc42)N2CCC[C@@H]32)sc(C)c1C,10%,0.0%,12%,2
S=C(NCCc1ccccc1)N1CCN(Cc2ccccc2)CC1,-48%,0.7%,0%,-8
CCC(Sc1nnnn1-c1ccccc1)C(=O)Nc1nc2ccccc2s1 (centres undefined),-13%,-0.5%,5%,0
CC1CCc2[nH]c3ccc(C(=O)Nc4ccc(C(=O)N(C)C)cc4)cc3c2C1 (centres undefined),2%,?,?,·
Cc1ccc(S(=O)(=O)c2nc(S(=O)(=O)c3ccccc3)sc2N2CCN(CCO)CC2)cc1,9%,-0.6%,15%,·
CCOC(=O)C(C)Sc1ncnc2c1nnn2-c1ccc(F)cc1 (centres undefined),-19%,0.9%,1%,-3
O=C(NC1CCC1)C1CCC(=O)N(Cc2ccccc2F)C1 (centres undefined),-1%,0.6%,-10%,·
Cc1cc(C(=O)COC(=O)Cn2cnc3c2c(=O)n(C)c(=O)n3C)c(C)n1C,-2%,-0.9%,-8%,-4
CC(=O)Nc1ccc2sccc2c1,-10%,-6.2%,2%,-2
O=c1[nH]nc(SCc2ccccc2Cl)n1-c1ccc2c(c1)OCCO2,-16%,-0.7%,15%,?
CCCSc1nc2cc(S(=O)(=O)N3CCOCC3)ccc2n1CC,-9%,0.5%,9%,·

# Next part; it opens with the 2 that closed the last part.
SMILES,miR-21 FLuc,Rango complex inh,Rango release inh,GLA inh pH 4.5
O=c1[nH]nc(SCc2ccccc2Cl)n1-c1ccc2c(c1)OCCO2,-16%,-0.7%,15%,?
CCCSc1nc2cc(S(=O)(=O)N3CCOCC3)ccc2n1CC,-9%,0.5%,9%,·
Cc1cccc(NC(=O)CCC(=O)Nc2nnc(C3CCCCC3)s2)c1,0%,-3.0%,5%,·
CCOC(=O)c1ccc(N2Cc3ccccc3C2)cc1O,-46%,-0.2%,-4%,7
COc1ccc(CNC(=O)CN2CCC(NC(=O)c3ccc(OC)cc3)CC2)cc1,-2%,-3.0%,7%,·
CC(C#N)N1CCN(S(=O)(=O)c2ccc3c(c2)CCC3)CC1 (centres undefined),·,-0.2%,5%,·
O=C(CN1CCC(n2nnc3cc(F)ccc32)CC1)NCCc1ccccc1,-42%,0.1%,-26%,-8
O=C(CSc1nc(O)cc(=O)[nH]1)N1c2ccccc2Sc2ccccc21,-8%,?,0%,4
O=C(CCCn1c(=S)[nH]c2ccccc2c1=O)N1CCCCC1,-9%,-7.1%,-18%,1
COc1ccc(OC)c(S(=O)(=O)N2CCCC(C(=O)N3CCCCCC3)C2)c1 (centres undefined),6%,2.9%,6%,·
CCOC(=O)C1=C(O)C(=O)N(c2ccc(S(N)(=O)=O)cc2)C1c1cccc([N+](=O)[O-])c1 (centres undefined),0%,-1.5%,24%,-13
O=C(O)CP(=O)(O)O,-2%,1.1%,0%,-6&-3
O=C(Cc1ccc(Cl)cc1)Nc1ccccc1CO,-6%,-3.2%,5%,-2
COCCN(C(=O)COC(=O)c1c(NC(C)=O)sc(C)c1C)c1c(N)n(Cc2ccccc2)c(=O)[nH]c1=O,·,-3.1%,-10%,·
CCC(C)[C@H](NS(=O)(=O)c1ccc(C)cc1)C(=O)N1CCC(C(=O)N[C@H](C(=O)O)c2ccccc2)CC1 (some centres undefined),-3%,-3.4%,3%,·
Cc1nc(N2CCOCC2)nc(N2CCCC2)c1[N+](=O)[O-],-21%,1.0%,0%,1
COCCNC(=O)c1cccc2c1-c1ccccc1C2=O,-4%,0.0%,-2%,·
Cc1nn(-c2ccc(C(=O)O)cc2)c2c1C(=O)CC(C)(C)C2,1%,5.6%,7%,-2
CCC(Sc1nnnn1-c1ccccc1)C(=O)NC(C)c1ccccc1 (centres undefined),-4%,-0.8%,20%,-6
CC(C)(C)c1ccc(OCC(=O)Nc2ccc(C(=O)Nc3ccccc3C(=O)O)cc2)cc1,-2%,6.5%,13%,·
Cc1ccccc1C(=O)Nc1ccnn1C1CCN(CCCc2ccccc2)CC1,-3%,0.2%,2%,·
CCN(CC)S(=O)(=O)c1cccc(NC(=O)c2ccc(C#N)cc2)c1,3%,0.7%,0%,-3
Cc1cc(-c2nnc(CCC(=O)N3CCN(Cc4cccnc4)CC3)o2)c(C)o1,9%,?,-21%,-12
COc1ccc(-c2csc(N3CCC(c4ccccc4)C3)n2)cc1 (centres undefined),-12%,2.7%,9%,9
Cc1cc(NC(=O)c2ccc3nc(-c4ccccc4)c(-c4ccccc4)nc3c2)no1,1%,0.6%,1%,5
O=C(CSc1nc2c(c(=O)[nH]1)CN(Cc1ccc(F)cc1)CC2)Nc1ccc(F)cc1,3%,-5.6%,18%,3
Nc1nc(CCl)nc(Nc2cccc3ccccc23)n1,?,-0.9%,-1%,9
COc1ccc(-c2noc(-c3ccccc3F)n2)cc1,-31%,-2.9%,14%,2
Cc1ccc(S(=O)(=O)N2CCN(C3CC(=O)N(c4ccc(F)cc4)C3=O)CC2)cc1C (centres undefined),·,2.3%,-2%,·
Cc1cccc(OCc2nnc(SCc3cc(=O)n4cc(Br)ccc4n3)o2)c1,-1%,3.1%,-11%,-3
COc1ccc(-c2cc(C(=O)Nc3nc4c(C)cccc4s3)c3ccccc3n2)cc1OC,1%,?,2%,1
Cc1ccc2c(Cl)c(C(=O)Nc3cc(C)on3)sc2c1,-52%,0.1%,10%,2
CCOC(=O)/C=C/[C@H]1CC(c2ccccc2)(c2ccccc2)CO1,·,-1.3%,3%,·
O=C(CCn1nc(-c2ccc(Cl)cc2)c2ccccc2c1=O)NCCN1CCOCC1,-3%,1.0%,2%,-13
C/C(Cn1nnc2ccccc21)=N\OC(=O)c1cc(F)c(F)cc1Cl,1%,0.2%,2%,7
CCN(C(=O)Cc1c(C(=O)O)n(C)c2ccccc12)c1cccc(C)c1,0%,0.2%,-7%,·
O=C(Nc1ccc(Oc2ncnc3cc(Cl)ccc23)nc1)c1ccc(F)cc1,-4%,-0.5%,-17%,5
O=C(CN(Cc1ccco1)C(=O)c1cc(=O)[nH]c2ccccc12)Nc1ccccc1Br,1%,-1.9%,-8%,2
CCOC(=O)C1(Cc2ccccc2Cl)CCN(S(=O)(=O)N(C)C)CC1,2%,-0.5%,3%,-1
NC(=O)c1ccc(-c2noc(-c3ccccc3F)n2)cc1,·,-0.3%,-7%,·
CCN(CC)S(=O)(=O)c1ccc2[nH]cc(C(=O)NCCN3CCCCCC3)c(=O)c2c1,-5%,-1.6%,1%,-7
CC(=O)Nc1ccc(S(=O)(=O)Oc2ccccc2N2C(=O)C3C4CCC(C4)C3C2=O)cc1 (centres undefined),10%,0.9%,6%,·

# Arranged by the number under Rango complex inh (low to high): some entries from above
SMILES,miR-21 FLuc,Rango complex inh,Rango release inh,GLA inh pH 4.5
NC(=O)c1ccc(-c2noc(-c3ccccc3F)n2)cc1,·,-0.3%,-7%,·
O=C(CN1CCC(n2nnc3cc(F)ccc32)CC1)NCCc1ccccc1,-42%,0.1%,-26%,-8
Cc1cc(NC(=O)c2ccc3nc(-c4ccccc4)c(-c4ccccc4)nc3c2)no1,1%,0.6%,1%,5

# Continued.
SMILES,miR-21 FLuc,Rango complex inh,Rango release inh,GLA inh pH 4.5
NNC(=O)c1cccn(Cc2ccc(Cl)cc2Cl)c1=O,4%,-0.5%,0%,·
Cc1noc(C)c1C(=O)N1CCN(Cc2ccccc2)CC1,-1%,1.2%,13%,-18
CCOc1ccc(N2C(=O)CC(N(CCc3ccc(OC)c(OC)c3)C(=S)Nc3ccccc3)C2=O)cc1 (centres undefined),25%,1.4%,-6%,6
O=C(Nc1cccc(Cl)c1)c1cc(F)cc2c1OCOC2,?,5.8%,6%,-2
O=C(NCCCc1ccccc1)c1cccc(NC(=O)c2ccccc2)c1,·,-0.6%,-3%,·
CCN(CC)CCn1c2c(c(SCC(=O)Nc3cc(C)on3)nc1=O)CCCC2,·,-2.2%,-11%,·
Cn1ncc(Br)c1C(=O)OCC(=O)Nc1nc(-c2ccccc2)cs1,-32%,-3.8%,2%,19
Cc1nc(C)n(CC(C)C(=O)N2CCN(S(=O)(=O)c3ccccc3)CC2)n1 (centres undefined),7%,-0.9%,-10%,·
CCNC(=O)C1CCN(S(=O)(=O)c2ccc(F)cc2)CC1,-8%,-3.6%,-9%,-2
CCc1ccc(-c2cn(C3CCCCC3)c(=S)[nH]2)cc1,-12%,-4.6%,0%,-3
CC(C)CC1Nc2ncnc(N3CCN(c4ccccn4)CC3)c2N(Cc2ccccc2)C1=O (centres undefined),·,-1.4%,-16%,·
O=C(c1ccccc1S(=O)(=O)NCc1ccccc1)N1CCCCC1,-10%,1.1%,14%,0
CSCCC(NS(=O)(=O)c1ccc(Cl)cc1)C(=O)OCC(=O)N1CCOCC1 (centres undefined),-1%,-0.2%,-5%,2
CCc1ccccc1NC(=O)CCOc1ccccc1,-5%&3%,2.2%,-8%,·
CCc1cccc2sc(N(CCCN3CCOCC3)C(=O)CS(=O)(=O)c3ccccc3)nc12,·,-3.2%,-1%,·
Nc1c(C(=O)N/N=C/c2ccc(Cl)cc2)cnn1-c1ccccc1,-16%,0.3%,?,-6
COc1ccccc1OCC(=O)N1CCN(S(=O)(=O)c2ccc(Cl)cc2)CC1,·,-3.4%,6%,·
COc1ccc(-c2nnc3sc(-c4ccco4)nn23)cc1OC,-25%,-2.3%,11%,-7
CCN(CC)CCCN(C(C)=O)c1nc(-c2cc(OC)ccc2OC)cs1,-33%,0.2%,-22%,9
COc1ccc(CCNC(=O)COC(=O)COc2ccc(C#N)cc2)cc1,-1%,0.3%,-8%,-5
CCC(NC(=O)Cc1c(C)c2ccc(OC)c(C)c2oc1=O)C(=O)NC(Cc1ccc(Cl)cc1)C(=O)O (centres undefined),1%,0.2%,19%,·
COc1cc(CNCCCO)ccc1OCC(=O)NC(C)(C)C,0%,-0.4%,-15%,8
O=C(c1csc2ccccc12)N1CCN(c2ccc(Cl)c(Cl)c2)CC1,-2%,2.1%,-7%,-2
O=C(Cc1cccs1)Nc1nnc(SCC(=O)N2CCCCC2)s1,-6%,-1.1%,1%,-8
CCOC(=O)c1c(-c2ccccc2)oc2ccc(O)c(CN3CCN(C)CC3)c12,26%,-2.1%,0%,2
Cc1ccc(Cl)cc1N1CCN(S(=O)(=O)c2c(C)nc3scc(C)n3c2=O)CC1,0%,3.7%,0%,·
O/N=C(\Cn1ccnc1)c1ccccc1,·,-1.3%,21%,·
Cc1cccc(N2C(=O)N3[C@@H]4c5ccccc5OC[C@@H]4[C@@H](c4ccccc4)[C@]3(C)C2=O)c1,9%,0.1%,-24%,·
O=C(NNC(=O)c1cc(-c2ccncc2)nc2ccccc12)c1ccccc1F,·,-1.5%,-16%,·
O=C(NCCOCc1ccccc1)C(c1ccccc1)c1ccccc1,5%,-0.5%,?,-2

# Some of the compounds tested (hit frequency here may not be typical).
